Assay outcomes: PubChem BioAssay, National Center for Advancing Translational Sciences (NCATS)
HSD17B inh = HSD17B dehydrogenase inhibition. actives 7.6% (n = 75,000). AID 893. recombinant HSD17B10, NADH fluorescence kinetic; many of its hits are not listed in these tables. Potency, µM (doses to about 57.1 µM), for the others: top-dose activity change, negative = inhibition, most hits filed as inhibitors; active = well fitted inhibition curve with a large enough effect; inconclusive = small, poorly fitted or top-dose-only effect; inactive = no such curve, though single readings can be large or run the other way;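 note: the protocol describes HADH2 (HSD17B10) and not the HSD17B4 of the title; nearly all actives have a fitted effect of over 70% in size; most hits overshoot -100% by far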
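His-tagged E. coli-expressed HADH2 at 20 nM in 100 mM Tris-HCl pH 9.0 with 0.01 % Tween-20, preincubated 15 min with compound at room temperature. Reaction with 1 mM NAD+ and 90 uM beta-hydroxybutyryl coenzyme A; NADH fluorescence (360/450 nm) read kinetically over 4 min, last minus first point.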
Numbers without * were called inactive; i = inactive; ? = inconclusive; [ ] = dose if it differs, or a comment. % is set by controls: 0 for no effect and ±100 for the full control effect; potency is the fitted concentration of half-maximal effect. These rows are one share of the data. The share of hits here may be higher or lower than overall.

item	canonical_smiles	HSD17B inh
1	COc1ccc(Cn2nnnc2C(C(C)C)N2CCc3ccccc32)cc1 (stereo not drawn)	-4%
2	Nc1cccc(-n2nncc2-c2ccccc2)c1	9%
3	CC1(C)Cc2ccccc2-c2nnc(-c3cccnc3)n21	7%
4	COc1ccccc1S(=O)Cc1ccc(C(=O)O)o1 (stereo not drawn)	-5%
5	CCn1c(=O)cc(SCC(=O)N2CCN(C(=O)c3ccco3)CC2)c2ccccc21	?
6	CC(=O)Nc1nc(C)c(Cc2ccccc2)c(=O)[nH]1	7%
7	CCCCCn1c(S(=O)(=O)O)nc2ccccc21	5%
8	CCC(CC)C(=O)NCc1ccccc1Cl	14%
9	O=C(NCCCC(=O)N1CCOCC1)c1cccnc1	11%
10	COc1ccc(N2CCN(c3nc(NCCc4ccc(OC)c(OC)c4)nc(OC)n3)CC2)cc1	29%
11	CCOC(=O)C1CCN(C(=O)c2cnn3c(C)cc(C)nc23)CC1	25µM*
12	CCNc1nc2nonc2nc1NCC	5%
13	NC(=O)NC(N)=O	1%
14	C=CCn1c(SCc2ccccc2C#N)nnc1-c1ccccc1O	1%
15	O=C(CSc1nc2ccccc2n1CC(=O)N1CCCC1)Nc1nccs1	4%
16	COc1ccc(S(=O)(=O)NCCC(=O)NCc2cccs2)cc1	4%
17	CCOc1ccc(-c2[nH]ncc2Oc2ccccc2OCC)c(O)c1	-14%
18	Cc1ccccc1Cn1nc(C)c(NC(=O)c2cc(-c3cccs3)on2)c1C	-3%
19	Nc1cc(N)nc(SCc2cccnc2)n1	12%
20	CC(=O)Nc1ccc(S(=O)(=O)N(C)S(=O)(=O)c2ccc(F)cc2)cc1	-1%
21	COc1ccc(Cl)cc1NC(=O)CSc1ncnc2c1oc1ccccc12	1%
22	CC(=O)c1cnc2nc(C)nn2c1C	8%
23	CCOc1ccccc1Nc1nnc(SCC(=O)Nc2cc(C)on2)s1	-10%
24	CCOc1ccc(S(=O)(=O)NCCCN2CCOCC2)c2ccccc12	5%
25	CC(=O)Nc1ccc(C2NC(C(=O)O)CCC2C)cc1 (stereo not drawn)	4%[11.4 µM]
26	CCNC(=O)N1CCN(CCCC(c2ccc(F)cc2)c2ccc(F)cc2)CC1	-8%
27	CNc1ccc(C(O)(C(F)(F)F)C(F)(F)F)cc1C(O)(C(F)(F)F)C(F)(F)F	?
28	NC(=O)CSc1nnc(-c2cc3ccccc3o2)n1Cc1ccccc1	i
29	Cc1cc(C)nc(N2CCCC(C(=O)NCCc3ccc(F)cc3)C2)n1 (stereo not drawn)	?
30	CCOC(=O)C(C)Sc1nnc(Cc2cc(=O)[nH]c(=O)[nH]2)n1-c1cccc(OC)c1 (stereo not drawn)	8%
31	COc1ccc(NC(=O)CCNC(=O)Cn2cnc3ccccc3c2=O)c(OC)c1	8%
32	C[C@@]1(C(NC(=O)Cc2ccccc2)c2ccc(-c3ccccc3)cc2)C[C@H]1C1CCCCC1 (stereo partly drawn)	7%
33	COCC(=O)N1CCC[C@@]2(CCN(c3ncccn3)C2)C1	?
34	O=C(CSc1ccc2nnc(-c3ccccn3)n2n1)NCC1CCCO1 (stereo not drawn)	32µM*
35	COC(=O)[C@H](C)NC(=O)NCc1ccccc1F	4%
36	CCn1c(SCC(=O)N2CCN(c3ccc(Cl)cc3)CC2)nc2ccccc2c1=O	-1%
37	CCOC(=O)N1CCC(NC(=O)c2cc3cc4cc(OC)ccc4nc3o2)CC1	25µM*
38	CN(C)CCNC(=O)NC1CCCCC1	6%
39	COc1ccccc1C(=O)Oc1ccc(N2C(=O)CCC2=O)cc1	-11%
40	COc1ccc(-c2cc(C(=O)N/N=C/c3ccc(O)cc3)[nH]n2)cc1	-14%
41	CS(=O)(=O)N(CC(=O)N1CCCC1)c1cccc(Cl)c1	4%
42	O=C(COc1ccc2c(c1)OCO2)Nc1ccc2c(c1)oc1ccccc12	-26%
43	COC(=O)c1c(NC(=O)CSc2nncs2)sc2c1CCCCC2	-21%
44	O=C(NCCn1cccc1)c1cccc2ccccc12	-10%
45	C/C(=C\c1ccco1)C1C(C#N)=C(N)Oc2n[nH]c(-c3ccccc3)c21 (stereo not drawn)	?
46	CCCCCN(C(=O)NC(=O)NCCCC)S(C)(=O)=O	7%
47	O=C(c1ccc(COc2c(F)c(F)c(F)c(F)c2F)o1)N1CCOCC1	-13%
48	O=S(=O)(NC1CCCCC1NS(=O)(=O)c1ccc(F)cc1)c1ccc(F)cc1 (stereo not drawn)	-1%
49	N#Cc1ccc(COc2ccc(CCO)cc2-n2nc3ccccc3n2)cc1	32µM*
50	O=C(NCc1cccs1)C1CCCN(S(=O)(=O)c2cccs2)C1 (stereo not drawn)	-2%
51	CC(=O)Nc1ccc(S(=O)(=O)NC2(C(F)(F)F)NC(=O)N(C3CCCC3)C2=O)cc1 (stereo not drawn)	2%
52	CCC(=O)OCc1cc2cccc(C)c2[nH]c1=O	?
53	Cc1cc(C(=O)N2CCc3ccccc32)n(-c2ccccc2)n1	1%
54	CCOc1ccc(Oc2nc(NCC(C)C)nc(N(C)C)n2)nn1	5%
55	Clc1ccc2oc(-c3ccccc3)nc2c1	-18%
56	O=C1NCCCC1C(=O)N1CCN(C(=O)C2CCCNC2=O)CC1 (stereo not drawn)	1%
57	FC(F)(F)c1ccc2c(c1)nc1n2CCCC1	3%
58	O=C1c2ccccc2S(=O)(=O)N1CC(O)Cn1c2ccccc2c2ccccc21 (stereo not drawn)	-2%
59	COC(=O)c1[nH]c2c(c1C)C(=O)CC(c1ccccc1)C2 (stereo not drawn)	-5%
60	O=C(CSc1ncnc2c1oc1ccccc12)N1CCCc2ccccc21	-12%

(more compounds)
item	canonical_smiles	HSD17B inh
61	Cc1ccc(-n2nnnc2SC(C)C(=O)Nc2ccc(Cl)cn2)cc1 (stereo not drawn)	-4%
62	Cc1noc(C)c1S(=O)(=O)N1CCC(C(=O)N2CCN(c3ccc(F)cc3)CC2)CC1	8%
63	O=C(CSc1nnc(-c2cccs2)n1-c1ccccc1)NCC1CCCO1 (stereo not drawn)	12%
64	Cc1ccccc1OCC(=O)Nc1ccc2c(c1)OCO2	-6%
65	COc1ccc(C(c2c(O)ccc3ccccc23)N2CCOCC2)c(OC)c1 (stereo not drawn)	25µM*
66	O=C(NCCN1CCOCC1)c1cc2sccc2n1Cc1ccc(F)cc1	12%
67	O=C(O)[C@@H]1CCCN1Cc1ccc2c(c1)OCO2	-1%[11.4 µM]
68	c1c[nH]cn1	5%
69	Cn1c(=O)c2cc(S(=O)(=O)N3CCC(c4ccccc4)CC3)ccc2n(C)c1=O	7%
70	O=C1Nc2cc(Cl)cnc2N2CCCC12 (stereo not drawn)	?
71	COc1ccc(C2CC(=O)c3ccc(OC)cc3O2)cc1 (stereo not drawn)	2%
72	COc1ccc(N(CC(=O)NC2CCCCC2)S(=O)(=O)c2cccnc2)cc1	4%
73	CC(=O)Nc1ccc(N=Cc2nc(-c3ccc(C)cc3)oc2O)cc1	-3%
74	CCOC(=O)N1CCN(S(=O)(=O)/C=C/c2ccccc2)CC1	-1%
75	CCc1nc2ccccc2c(=O)n1CCCCn1c(CC)nc2ccccc2c1=O	-2%
76	Nc1ncnc2c1[nH]c(=O)n2C1CC(O)C(CO)O1 (stereo not drawn)	7%
77	Cc1nc2ccc(S(=O)(=O)NC(C(=O)NCc3cccs3)C(C)C)cc2s1 (stereo not drawn)	8%
78	O=C(NCc1ccncc1)c1nnc(Cc2c(F)cccc2Cl)o1	1%
79	CC(=O)Nc1ccc2c(c1)nc(CCN1CCOCC1)n2C	6%
80	O=C(CN1C(=O)c2ccccc2C1=O)Nc1ccccc1C(=O)N1CCCC1	-3%
81	O=S(=O)(c1ccccc1)N1CCC2(CCN(c3cccc(-c4ccccc4)c3)CC2)CC1	20µM*
82	Cc1c(C(=O)O)oc2ccc(S(=O)(=O)NCc3ccc4c(c3)OCO4)cc12	5%
83	O=C(c1cccs1)n1nc(-c2ccccc2)nc1NCc1ccco1	12%
84	O=C(CN1CCN(S(=O)(=O)c2ccc(Cl)cc2)CC1)Nc1ccc2c(c1)OCCO2	-4%
85	CC(=O)C1=C(O)C(=O)N(CCCCCC(=O)O)C1c1ccc(N(C)C)cc1 (stereo not drawn)	-6%
86	O=C1OC(=O)c2c(Cl)c(Cl)c(Cl)c(Cl)c21	7%
87	Cc1ccc(-c2nnc(SCC(=O)Nc3ccccc3F)o2)cc1	?
88	CCN1CCN(c2ncc3c(n2)CC(c2cc(OC)c(OC)c(OC)c2)CC3=O)CC1 (stereo not drawn)	-12%
89	COC(=O)c1ccccc1NC(=O)c1ccccc1OC	?
90	Cc1nc2ccc(Br)cn2c(=O)c1Cl	-6%
91	CCCn1c(CCC(=O)O)ccc1-c1ccc(F)cc1	32µM*
92	c1ccc(CCNc2nc3ccccc3n3nnnc23)cc1	13%
93	O=C1NCCCC1C(=O)N1CCN(C(c2ccccc2)c2ccccc2)CC1 (stereo not drawn)	2%
94	CC1Cc2cc(C3(O)C(=O)c4ccccc4C3=O)ccc2N1 (stereo not drawn)	22%
95	COc1ccc(-n2nc3cc(C)c(NC(=O)C(C)C)cc3n2)cc1	4µM*
96	COC(=O)c1[nH]c2ccccc2c1NC(=O)CN1CCN(C/C=C/c2ccccc2)CC1	?

Reprinted at random: 6 compounds from above, in no set order.
item	canonical_smiles	HSD17B inh
89	COC(=O)c1ccccc1NC(=O)c1ccccc1OC	?
87	Cc1ccc(-c2nnc(SCC(=O)Nc3ccccc3F)o2)cc1	?
95	COc1ccc(-n2nc3cc(C)c(NC(=O)C(C)C)cc3n2)cc1	4µM*
94	CC1Cc2cc(C3(O)C(=O)c4ccccc4C3=O)ccc2N1 (stereo not drawn)	22%
85	CC(=O)C1=C(O)C(=O)N(CCCCCC(=O)O)C1c1ccc(N(C)C)cc1 (stereo not drawn)	-6%
93	O=C1NCCCC1C(=O)N1CCN(C(c2ccccc2)c2ccccc2)CC1 (stereo not drawn)	2%

Later entries.
item	canonical_smiles	HSD17B inh
97	CCN1CCCC1CNC(=O)c1ccc(N2CCCC2=O)cc1 (stereo not drawn)	1%
98	O=C(Cc1ccc(Br)cc1)c1ccc(O)cc1O	4%
99	COc1ccc(OC)c(S(=O)(=O)N2CCC(C(=O)NCc3ccccc3OC)CC2)c1	1%
100	COc1ccc(-c2nc(CS(=O)CC(=O)NCc3ccco3)c(C)o2)cc1 (stereo not drawn)	?
101	COC(=O)c1[nH]c2ccc(C)cc2c1NC(=O)CN1CCCc2ccccc21	?
102	CC1CN(c2cc3nccnc3cc2F)CC(C)O1 (stereo not drawn)	-10%
103	O=c1[nH]c(N2CCc3ccccc3C2)nc2c1CCCC2	-4%
104	Cc1ccccc1CSc1nnc(-c2cccnc2)n1N	6%
105	CCCCCn1c(=O)[nH]c2cc(C(=O)NCCCN3CCCCC3)ccc2c1=O	25µM*
106	Cc1cc(N2C(=O)C(O)=C(C(=O)c3ccco3)C2c2cccnc2)no1 (stereo not drawn)	3%
107	O=S(=O)(c1ccccc1)N1CCC2(CC1)CN(c1ccncc1)C2	7%
108	O=C(Nc1nc2ccc(S(=O)(=O)N3CCCC3)cc2s1)C1CCCO1 (stereo not drawn)	-1%

In another format: results already given.
(101) COC(=O)c1[nH]c2ccc(C)cc2c1NC(=O)CN1CCCc2ccccc21
  HSD17B inh: ?

(102) CC1CN(c2cc3nccnc3cc2F)CC(C)O1 (stereo not drawn)
  HSD17B inh: -10%

(103) O=c1[nH]c(N2CCc3ccccc3C2)nc2c1CCCC2
  HSD17B inh: -4%

Later entries
item	canonical_smiles	HSD17B inh
109	Cc1cc(C)n2nc3nc(N4CCCC4)nc(-c4ccccc4)c3c2n1	-18%
110	COc1cc(Cn2cnnn2)ccc1O	-6%
111	Cc1ccc(NC(=O)CN(C)S(=O)(=O)c2cccc3nsnc23)cc1C	-4%
112	COc1ccc(-n2c(=O)c(CCc3ccccc3)nc3cnc(N4CCN(C)CC4)nc32)cc1	18%
113	O=C(Nc1ccccc1)NC1CCN(Cc2nnnn2C2CCCCC2)CC1	1%
114	Cc1cc2ncn(C(=O)N3CCOCC3)c2cc1C	8%
115	O=c1c(-c2ccccc2)coc2c(CN3CCOCC3)c(O)ccc12	32µM*
116	Cc1cc(-c2nnc(SCC(=O)NC3CCCC3)o2)no1	-2%
117	CCOc1ccccc1NC(=O)N1C2CCCC1CC(NC(=O)C1CC1)C2 (stereo not drawn)	1%
118	CNC(=O)C1CCC(=O)N1Cc1ccc(C)cc1 (stereo not drawn)	6%
119	CCOC(=O)CN1C(=O)C(CC)Oc2ccc(Cl)cc21 (stereo not drawn)	9%
120	CC(=O)Nc1ccc(S(=O)(=O)N2CCSC2c2ccccc2Cl)cc1 (stereo not drawn)	-5%
121	O=C(NCc1ccc2[nH]c3c(c2c1)CCCC3)N1CCOCC1	?
122	CN(C)/C=N/c1c(C#N)cnn1-c1ncnc2sc(-c3ccccc3)cc12	?
123	CCN(CC)S(=O)(=O)c1cc(C(=O)Nc2ccncc2)ccc1Cl	1%
124	O=C(Nc1ccc2c(c1)OCO2)c1nn(-c2ccccc2)c(=O)c2ccccc12	6%
